Source: PubChem BioAssay (National Center for Advancing Translational Sciences (NCATS))
Menin MLL FP FL: inhibitors of human menin-MLL interaction, wild-type MLL peptide; Fluorescence polarization, fluorescein-MLL peptide displacement from menin; FP activity change, % at 61.4 µM; 290,000 tested, under 10 active; inconclusive = falling polarisation curve, or a change in total fluorescence; inactive = total fluorescence flat and polarisation flat or rising; no compound was filed as active; the % refers to the polarisation; negative = inhibition;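 also: % of control where 0% means no effect; inhibitors lower the polarisation; unlabelled MLL peptide was the positive control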
Sfp PPTase inh: inhibitors of Bacillus subtilis Sfp phosphopantetheinyl transferase. Q9F4F7. Biochemical Sfp PPTase activity, qHTS. Potency, µM, inactives show max response, negative = inhibition, actives largely listed as inhibitors. actives 3.5% (n = 310,000). AID 1490; active = well fitted inhibition curve with a large enough effect; inconclusive = small, poorly fitted or top-dose-only effect, or another doubt; inactive = no such curve, though single readings can be large or run the other way;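 also: the enzyme is Sfp with the accession as filed and its product quenches rhodamine fluorescence; potency is read from the fitted curve at half-maximal effect; 0% = enzyme reaction without inhibitor and -100% = no enzyme wells; top concentration of the series not given in the record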
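Sfp 15 nM + cpd, 15 min RT; start w/ rhodamine-CoA 5 uM, BHQ-2-YbbR 12.5 uM (final); 50 mM Hepes pH 7.6, 10 mM MgCl2, 0.01% NP-40, 0.01% BSA; read 525/598 nm at 0 and 30 min.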
Numbers without * were called inactive; ? = inconclusive; & = joins results of further samples; ! = not active in a repeat; [ ] = dose if it differs, or a comment. An excerpt; rates above refer to the full screens.

SMILES | Menin MLL FP FL | Sfp PPTase inh
COC(=O)N[C@H](C[N+](=O)[O-])c1cccc(C)c1 | -0.1 | -14.1%
CC(=O)S[C@H]1CC2=CC(=O)CC[C@@]2(C)[C@H]2CC[C@@]3(C)[C@H](CC[C@]34CCC(=O)O4)[C@@H]12 | 2.1[24.8 µM] | 16.5%
Cc1ccccc1Nc1oc(-c2ccccc2)nc1-c1ccccc1 | -6.7 | -23.0%
CC(C1CCCC(=O)C1)[N+](=O)[O-] (centres undefined) | -3.7 | 20.2%
CCOC(=O)C1C(C(=O)OC)=C(c2ccc(F)cc2)c2ccc(OC)cc2N1S(=O)(=O)C(F)(F)F (centres undefined) | 0.0 | 9.9%
COc1cc2c(cc1OC)C1N(CC2)C(=O)CCC12C(=O)CCCC2=O (centres undefined) | -7.4 | ?
CCCCCCCCCCCCCCCCn1cc[n+](Cc2ccccc2)c1C | -19.6 | 12.6µM*
COCCn1c(=O)c(-c2cc(F)cc(F)c2)nc2cnc(OC)nc21 | 2.1 | 12.6%
OCC1OC(/C=C\c2ccccc2)C=CC1Oc1ccc2c(c1)OCO2 (centres undefined) | 6.8[11.7 µM] | 0.3%
CC[C@]1(c2ncc[nH]2)Cc2ccccc2O1 | ? | 9.2%
CCNc1ncc2nc(-c3ccc(F)cc3)c(=O)n(CCOC)c2n1 | ? | 18.0%
CCCCC/C=C\C/C=C\C/C=C\CCCCCCC(=O)NC(C)C(=O)O (centres undefined) | -6.0 | -0.8%

Next section; the last 3 above are carried over.
SMILES | Menin MLL FP FL | Sfp PPTase inh
CC[C@]1(c2ncc[nH]2)Cc2ccccc2O1 | ? | 9.2%
CCNc1ncc2nc(-c3ccc(F)cc3)c(=O)n(CCOC)c2n1 | ? | 18.0%
CCCCC/C=C\C/C=C\C/C=C\CCCCCCC(=O)NC(C)C(=O)O (centres undefined) | -6.0 | -0.8%
CC[C@@]1([C@@H]2O[C@@H]([C@H]3O[C@@](O)(CO)[C@H](C)C[C@@H]3C)C[C@@H]2C)CC[C@H]([C@]2(C)CC[C@]3(C[C@H](O)[C@@H](C)[C@@H]([C@@H](C)[C@@H](OC)C(C)C(=O)O)O3)O2)O1 (some centres undefined) | -7.6 | -6.3%
CCCCC1=CC2=C(c3ccco3)C(=O)C(C)(OC(=O)c3ccc(Cl)nc3)C(=O)C2=CO1 (centres undefined) | 23.1 | -15.9%
CCN(CC)CCC(c1ccc(N(C)C)cc1)c1c(OC)cc(OC)c2c1OC(=O)CC2c1ccc(OC)cc1 (centres undefined) | 6.2 | -11.9%
COC(=O)CCCOc1ccc(Cl)cc1Cl | 1.1 | -3.0%
Cn1cccc1C(=O)N1CCC2(CC1)CCN(c1ccc(-c3ccccc3)cc1)CC2 | 4.8 | 0.9%
N#CCCn1c(=O)c(-c2cccc(C#N)c2)nc2cnc(Oc3cccc(Cl)c3)nc21 | 12.5 | 9.5%
CCCNC(=O)OC[C@@H]1O[C@H](CCO/N=C(\C)CCN2CCc3nc(-c4ccccc4)c(-c4ccccc4)cc3C2)C=C[C@@H]1Oc1ccc(OC)cc1 | 3.6[11.7 µM] | 1.3%
CN1CCN(c2ncc3nc(-c4ccc(Cl)cc4)c(=O)n(Cc4cccs4)c3n2)CC1 | -7.8 | -12.4%
COC/C=C/C1=CC2=CC(=O)C(C)(OC(=O)c3cnc4ccccc4n3)C(=O)C2=CN1Cc1ccc2c(c1)OCO2 (centres undefined) | -3.8[11.7 µM] | 10.7%
C[C@@H]1CCC2[C@](C)(CO)[C@@H](O)CC[C@]2(C)[C@]12CCC(CO)(CCO)O2 (some centres undefined) | -3.7 | -2.6%
CC[C@H](C)[C@H](NC(=O)[C@H](Cc1ccc(O)cc1)NC(=O)[C@H](CCCNC(=N)N)NC(=O)[C@H](CCCNC(=N)N)NC(=O)[C@H](CC(C)C)NC(=O)[C@H](CCC(N)=O)NC(=O)[C@@H](NC(=O)[C@H](CCC(=O)O)NC(=O)[C@H](Cc1ccc(O)cc1)NC(=O)[C@H](CCC(N)=O)NC(=O)[C@H](C)NC(=O)[C@H](CCCNC(=N)N)NC(=O)[C@H](CCC(N)=O)NC(=O)[C@H](CCC(=O)O)NC(=O)[C@H](Cc1cnc[nH]1)NC(=O)[C@@H](NC(=O)[C@H](C)NC(=O)[C@H](Cc1ccc(O)cc1)NC(=O)[C@H](CC(=O)O)NC(=O)CNC(=O)[C@@H]1CCCN1C(=O)[C@H](Cc1ccc(O)cc1)NC(=O)[C@H](CCSC)NC(=O)[C@@H]1CCCN1C(=O)[C@H](CCC(=O)O)NC(=O)[C@H](CC(C)C)NC(=O)[C@@H]1CCCN1C(=O)[C@H](C)N)[C@@H](C)O)[C@@H](C)O)C(=O)N[C@@H](CC(N)=O)C(=O)N[C@H](C(=O)N[C@@H](CC(C)C)C(=O)N[C@H](C(=O)N[C@@H](CCCNC(=N)N)C(=O)N1CCC[C@H]1C(=O)N[C@@H](CCCNC(=N)N)C(=O)N[C@@H](Cc1ccc(O)cc1)C(N)=O)[C@@H](C)O)[C@@H](C)O | -3.6 | 9.0%
Cc1cnc(CNc2ncncc2-c2cccc(C#N)c2)cn1 | 0.9 | ?
CC1(OC(=O)c2cnc3ccccc3n2)C(=O)C=C2C=C(c3ccsc3)OC=C2C1=O (centres undefined) | -0.9 | -14.2%
CCN1C(=O)[C@H]2[C@H]3[C@H](O)[C@H](O)C/C(=N/OCC(C)C)[C@@H]3CC[C@@H]2C1=O | 0.6[11.7 µM] | 3.3%
C=C1CCN(C(C(=O)NCc2ccc(Cl)c(Cl)c2)C(C)C)S(=O)(=O)c2ccccc21 (centres undefined) | -1.4 | 5.2%
CC(C)(C)Cn1nc(-c2ccc(Cl)cc2)c2c(N)ncnc21 | ? | 14.8%
CCCCC[C@H](O)/C=C/C=C\C=C\[C@@H](O)C/C=C\CCCC(=O)O | -0.6 | -11.6%
CN(C)c1ccc(-c2cncnc2N(C)Cc2ccco2)cc1 | 3.4 | -5.8%
CC(C)[C@@H](CC(=O)N[C@@H]1CCNC[C@H]1C(=O)N[C@H](CC(=O)N[C@@H](CCC(=O)O)CC(=O)O)Cc1c[nH]c2ccccc12)NC(=O)C[C@H](Cc1ccccc1)NC(=O)[C@@H]1CCCC[C@H]1N | -3.9 | 2.0%
CCN1C(=O)[C@H]2[C@@H]3[C@H](O)[C@H](O)CC(=O)[C@H]3CC[C@H]2C1=O | -0.6&0.2[11.7 µM] | 23.9%&0.0%
COc1ccc(NC=O)c(C(=O)CCNC(C)=O)c1 | -1.4 | -1.0%
CN(C)c1ncc2nc(-c3ccc(Cl)cc3)c(=O)n(C3CC3)c2n1 | -6.2 | -2.0%
CSCC[C@H](NC(=O)[C@H](CC(C)C)NC(=O)CNC(=O)[C@@H]1CCCN1C(=O)[C@H](Cc1ccccc1)NC(=O)[C@H](Cc1ccccc1)NC(=O)[C@H](CC(=O)O)NC(=O)[C@H](Cc1cnc[nH]1)NC(=O)[C@H](CCSC)NC(=O)[C@@H](N)CC(=O)O)C(N)=O | ? | 6.5%
CC(=O)OCC1=C(C(=O)O)N2C(=O)[C@@H](NC(=O)CSc3ccncc3)[C@@H]2SC1 | 2.7[24.8 µM] | ?

Quoted at random: 4 entries already listed.
SMILES | Menin MLL FP FL | Sfp PPTase inh
CCN1C(=O)[C@H]2[C@@H]3[C@H](O)[C@H](O)CC(=O)[C@H]3CC[C@H]2C1=O | -0.6&0.2[11.7 µM] | 23.9%&0.0%
C=C1CCN(C(C(=O)NCc2ccc(Cl)c(Cl)c2)C(C)C)S(=O)(=O)c2ccccc21 (centres undefined) | -1.4 | 5.2%
CC1(OC(=O)c2cnc3ccccc3n2)C(=O)C=C2C=C(c3ccsc3)OC=C2C1=O (centres undefined) | -0.9 | -14.2%
CC(C)[C@@H](CC(=O)N[C@@H]1CCNC[C@H]1C(=O)N[C@H](CC(=O)N[C@@H](CCC(=O)O)CC(=O)O)Cc1c[nH]c2ccccc12)NC(=O)C[C@H](Cc1ccccc1)NC(=O)[C@@H]1CCCC[C@H]1N | -3.9 | 2.0%

Other compounds follow.
SMILES | Menin MLL FP FL | Sfp PPTase inh
CC(C)(O)C1CC[C@@]2(C)C3CCC4[C@@]5(C)CCCC(C)(C)C5C(O)C[C@]4(C)[C@]3(C)CC[C@@H]12 (some centres undefined) | 7.5 | 19.3%
CSc1ccc([C@H]2CN3CCC[C@H]3c3ccccc32)cc1 | 18.8 | -11.9%
COc1cccc2c1CCC1=CC(=O)CC[C@@]12C | -0.5 | 24.0%
Nc1ncnc2c1ncn2[C@@H]1O[C@H](C(=O)N2CCN(CC(=O)Nc3cccc4c3CNC4=O)CC2)[C@@H](O)[C@H]1O | -0.1 | ?
O=C(/C=C/c1ccccc1)OCc1ccccc1 | -1.0 | -13.1%
CCCNC(=O)OC[C@@H]1O[C@H](CCO/N=C\[C@@H](C)[C@H](OCc2ccccc2)C(C)C)C=C[C@@H]1Oc1ccc(OC)cc1 | 2.1[11.7 µM] | 13.4%
N[C@@H](CO)C(=O)O | -24.7&0.1 | 63.1µM*!
CCC(C(N)=O)c1ccccc1 (centres undefined) | -2.8 | 6.0%
CCCN1CCC(=O)N(C(CSc2ccc(Br)cc2)CC(C)C)CC1 (centres undefined) | -0.1 | -1.5%
Cc1nc2cnc(N3CCN(C)CC3)nc2n(C)c1=O | 3.1 | 8.9%
COc1ccc(-c2ccc(C)cc2)cc1C1C2C=CCC(C)C2C(=O)N1Cc1ccccc1 (centres undefined) | 5.1 | -4.2%
O=C1CCc2c(ccc3ccccc23)O1 | 9.2 | 20.3%&4.6%
COCCN(CCOC)c1nc(C)nc2c1nc(-c1ccccc1)n2CCCN(C)C | 5.4 | 32.0%[activator]
COC(=O)N1CCC2(CCN(C(=O)Nc3ccc(OC)cc3)CC2)CC1 | -3.3 | 21.5%
Cn1c(=O)c(-c2ccc(Cl)cc2)nc2cnc(N3CCNCC3)nc21 | -27.3 | -3.7%
CC1CCC(C(C)C)[C@H](O)C1 (some centres undefined) | -2.1 | 10.1%
O=C(/C=C/c1ccc2c(c1)OCO2)c1cccs1 | ? | 70.8µM*
CC(C)OC(=O)c1cn(Cc2c(F)cccc2F)c2sc(-c3ccc(NC(=O)C(C)C)cc3)c(CN(C)Cc3ccccc3)c2c1=O | 1.1 | -3.8%
O=C(O)c1ccccc1-c1ccc(C(F)(F)F)cc1 | -4.0 | 14.4%
CCOC(=O)C1(C(C)C)Oc2ccccc2C(c2ccc(OC)cc2)=C1C(=O)OC (centres undefined) | -1.6 | ?
CO[C@@H]1CC[C@@]2(C)[C@@H](CC[C@@]3(C)[C@H]2CC=C2[C@H]4CC(C)(C)[C@H](O)[C@@H](OC(C)=O)[C@]4(CO)[C@H](O)C[C@]23C)[C@@]1(C)CO (tested in a mixture with another compound) | 0.6[24.8 µM] | 16.2%
Cn1cccc1C(=O)N1CCC[C@@]2(CCN(c3cccc(-c4ccccc4)c3)C2)C1 | 4.8 | 3.7%
CS(=O)(=O)Nc1cccc(-c2cncnc2NCc2ccccc2)c1 | 1.5 | -15.0%
O=c1c(-c2cc(F)cc(F)c2)nc2cnc(N3CCNCC3)nc2n1Cc1ccc(F)cc1 | -5.6 | 17.8µM*
CC(C)OCCCN1C=C2C(=O)C(C)(OC(=O)C3CCCC3)C(=O)C=C2C=C1c1ccsc1 (centres undefined) | -4.0[11.7 µM] | 1.0%
CCCCCCN(C(=O)CCCCCN1C(=O)NC(C2CCCCC2)C(C(=O)OCc2ccccc2)=C1C)C(C(=O)NCCCC)c1ccc(OCC(=O)OC)c(C(=O)OC)c1 (centres undefined) | -0.1 | 10.7%
CO[C@@H]1COC(=O)C/C=C\[C@@H](C)[C@H](OC)COC(=O)[C@H](COCc2ccccc2)NC(=O)C/C=C\[C@H]1C | -0.6[11.7 µM] | -10.8%
O=C1/C(=C\c2cccs2)CCC/C1=C/c1cccs1 | 7.6 | -9.2%
COC(=O)C/C=C\[C@@H](C)[C@@H](/C=N\OC[C@@H](O)[C@H]1O[C@H]2OC(C)(C)O[C@H]2[C@@H]1O)NS(=O)(=O)c1ccc(C)cc1 | 1.6[11.7 µM] | 1.9%
O=C(Nc1ccc(O)c2c(=O)cc(-c3ccccc3Cl)oc12)c1cc(Cl)cc(Cl)c1 | -6.4 | 56.2µM*
N#Cc1cccc(NC(=O)N2CC[C@@]3(CCCN(C(=O)c4ccco4)C3)C2)c1 | 4.7 | -2.9%
CN(C)c1ncc2nc(-c3ccc(Cl)cc3)c(=O)n(C[C@H]3CCCO3)c2n1 | -11.8 | 10.2%
CCCCC/C=C\C\C=C/C=C/C=C/[C@@H](SCC(N)C(=O)O)[C@@H](O)CCCC(=O)O (some centres undefined) | 0.2 | -2.3%
OCC1=CC[N+]2(Cc3ccccc3)CCC(O)[C@@H]12 (some centres undefined) | -0.2 | 26.6%
C/C=C(/C)C(=O)OC1C(OC(C)=O)[C@@]2(CO)C(O)C[C@@]3(C)C(=CCC4[C@@]5(C)CCC(OC6OC(C(=O)O)[C@@H](O[C@@H]7OC(CO)C(O)C(O)C7O)C(O)[C@H]6O[C@@H]6OC(CO)C(O)C(O)C6O)[C@](C)(CO)C5CC[C@@]43C)C2CC1(C)C (some centres undefined) | 0.9 | 11.2%
CC1CC2C3CCC4=CC(=O)C=C[C@@]4(C)[C@]3(F)C(O)C[C@]2(C)[C@]1(O)C(=O)COP(=O)(O)O (some centres undefined) | 2.7 | 3.5%
